HSV augment = HSV replication enhancement; HSV replication augmentation in cells, fold increase; maximum fold increase; 0.005% of 220,000 active; AID 1956;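 active = peak rise of 1.5-fold or more in the series; tested in PC3 cells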;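 also: first round at 10 µM; read as green reporter fluorescence; hits show the peak of a series up to 25 µM; 1 = signal of infected wells without compound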
GALR2 ag = GALR2 (human) receptor agonism. GALR2-expressing cells, agonist activation read-out. activation, %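 (tested at 5 µM)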. 0.48% of 140,000 active;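 active = above mean plus 3 SD of all compounds, about 5% in these data, not always enough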;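 also: 0% = vehicle buffer wells and 100% = reference agonist at full effect; tested in CHO reporter cells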
Target sequence (O43603 whole entry, looked up): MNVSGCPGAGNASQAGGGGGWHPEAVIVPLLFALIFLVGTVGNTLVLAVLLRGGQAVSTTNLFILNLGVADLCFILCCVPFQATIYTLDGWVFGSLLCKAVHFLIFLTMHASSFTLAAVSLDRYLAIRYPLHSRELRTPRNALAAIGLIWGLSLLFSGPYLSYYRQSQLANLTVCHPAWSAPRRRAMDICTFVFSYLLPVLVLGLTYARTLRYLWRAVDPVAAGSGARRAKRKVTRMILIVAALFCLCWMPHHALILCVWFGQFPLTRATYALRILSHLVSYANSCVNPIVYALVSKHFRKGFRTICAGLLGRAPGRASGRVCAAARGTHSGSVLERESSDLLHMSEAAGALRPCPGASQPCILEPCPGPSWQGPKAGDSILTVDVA
INS promoter inh = TRM-6 insulin promoter activity inhibition. TRM-6 cells (human fetal islet line), insulin promoter-eGFP reporter, imaging; reporter expression induced with tamoxifen. inhibition, % at 2 µM. 0.9% of 130,000 active. AID 1273;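 active = inhibition above the mean plus 3 SD, with well images judged a real hit on visual review, cut at about 60% in these data, passing the limit was not always enough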
RGS16-Gao = regulators of human RGS16-Galphao interaction; O15492+P09471; bead-based flow cytometry RGS16-Galphao binding, fluorescence; actives lie on both sides; binding response (% of control), % at 10 µM; 0.38% of 220,000 active;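 active = below 25% or above 175%, edge rows of some plates excepted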;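 also: Galphao activated by GDP with aluminum fluoride before binding; 100% = wells without compound and 0% = beads without RGS; some results beyond the cut were filed as inactive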
Target sequence (O15492 whole entry, looked up): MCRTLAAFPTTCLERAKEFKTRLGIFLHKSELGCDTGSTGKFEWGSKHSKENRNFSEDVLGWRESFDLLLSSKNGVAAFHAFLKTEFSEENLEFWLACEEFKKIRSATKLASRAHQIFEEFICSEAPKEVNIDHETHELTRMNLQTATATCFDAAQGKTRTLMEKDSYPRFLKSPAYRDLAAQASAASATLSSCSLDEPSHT
Target sequence (P09471 whole entry, looked up): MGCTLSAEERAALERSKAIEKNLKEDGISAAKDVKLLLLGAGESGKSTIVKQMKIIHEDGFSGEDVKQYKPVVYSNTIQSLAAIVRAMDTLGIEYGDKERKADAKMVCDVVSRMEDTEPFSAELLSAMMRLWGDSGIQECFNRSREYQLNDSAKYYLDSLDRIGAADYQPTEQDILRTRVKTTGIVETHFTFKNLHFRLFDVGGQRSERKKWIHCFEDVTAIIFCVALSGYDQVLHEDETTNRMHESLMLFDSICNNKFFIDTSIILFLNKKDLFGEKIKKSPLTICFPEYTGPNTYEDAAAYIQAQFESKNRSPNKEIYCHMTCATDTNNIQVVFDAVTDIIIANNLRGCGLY
PKD1 kinase inh = PKD1 (human) kinase inhibition; Q15139; PKD1 kinase fluorescence polarization assay; inhibition, %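 (about 10 µM by stock and volumes)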; 0.056% of 200,000 active; AID 797;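 active = inhibition of 50% or more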;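 also: controls were vehicle for no effect and a reference inhibitor for full effect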
INS promoter inh cell count = second read-out of INS promoter inh, no call of its own (marks repeat the call); normalized cell count, %; measured here: cell count, toxicity; reference of the scale not given here;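 cells exposed to compound for 48 h; stained nuclei by imaging scaled within each plate; lower means fewer cells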
HSV augment primary fold = second read-out of HSV augment, no call of its own (marks repeat the call); fold increase; compound at 10 µM; measured here: primary screen fold increase 10 uM; tested in PC3 cells;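 GFP signal in the first replicate; 1 = infected wells without compound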
* hit, by the source's call; i = inactive; · = no result given.

SMILES | HSV augment | HSV augment primary fold | GALR2 ag | INS promoter inh | INS promoter inh cell count | RGS16-Gao | PKD1 kinase inh
CC(=O)C(C(C)=O)C(NC(=O)c1cccnc1)(C(F)(F)F)C(F)(F)F | i | 0.96 | -2.9 | 6 | 173 | 70 | -2
COc1cccc(N2CC(C(=O)Nc3nnc(SCC(=O)c4ccccc4)s3)CC2=O)c1 (centres undefined) | i | 1.1 | 0.6 | · | · | 64 | 5
CC(c1nnc(SCC(=O)N2CC(=O)Nc3ccccc32)n1Cc1ccccc1)N(C)C (centres undefined) | i | 0.95 | -1.8 | 62 | 84 | 101 | -4
CNC(=O)/C(C#N)=C\c1ccc(CNS(=O)(=O)c2ccc(Cl)cc2)o1 | i | 0.97 | · | 7 | 127 | 132 | -11
O=C1CC(c2ccccc2)CC(=O)C1=CN1CCCC1 (centres undefined) | i | 0.99 | · | · | · | 102 | ·
Cc1cc(C(F)F)nn1CC(=O)NCc1ccccc1F | i | 0.96 | -1.7 | 0 | 95 | 41 | 3
O=C(Cn1cnc2ccccc21)Nc1cc(C(F)(F)F)ccc1N1CCOCC1 | i | 0.75 | 0.2 | 3 | 107 | 122 | -2
CCn1ccnc1C(O)c1cccc(OC)c1OC (centres undefined) | i | 0.96 | -3.7 | · | · | 103 | 3
CC(=O)N1CCN(c2ccc([N+](=O)[O-])cc2C#N)CC1 | i | 1 | · | -17 | 51 | 77 | -3
C=CCN(C(=O)CNC(=O)c1ccco1)C(C(=O)NC1CCCCC1)c1ccc(F)cc1 (centres undefined) | · | · | -1.0 | -3 | 129 | 97 | 11
COc1ccc(CNCc2cccc(Cl)c2)cc1 | i | 0.99 | -0.4 | 36 | 172 | 106 | 9
Cc1ccc(-c2nnc(Nc3ccc(CC(N)=O)cc3)c3ccccc23)cc1 | i | 0.89 | -1.6 | -35 | 94 | 105 | -3
CCCCNC(=O)CCCn1c(=O)c2ccccc2n(CC(=O)NCCC2=CCCCC2)c1=O | i | 0.98 | 0.3 | -16 | 117 | 101 | -18
CCCCN1CCNC1=S | i | 1 | · | · | · | 97 | ·
CC(C)Sc1nc2c(c(=O)[nH]c(=O)n2C)n1C | i | 0.84 | 0.2 | 69 | 84 | 100 | -6
CCCn1c(=N)n(CC(O)c2ccco2)c2ccccc21 (centres undefined) | i | 1.3 | -0.2 | 7 | 96 | 101 | 1
N/C(=N\OS(=O)(=O)c1ccc(Cl)cc1)c1ccncc1 | i | 0.87 | -1.7 | -14 | 118 | 51 | -7
CCC1Oc2ccc(C)cc2N(CC(=O)N(Cc2cccnc2)Cc2cccc(F)c2)C1=O (centres undefined) | i | 1.2 | -0.4 | -56 | 120 | 96 | -12
CNC(=O)CC1C(=O)N(C)C(=S)N1NC(=O)c1ccc(Cl)cc1 (centres undefined) | i | 1 | -2.7 | 36 | 171 | 103 | -14
COCCCNC(=O)c1ccc2c(c1)ncn2-c1ccccc1OC | i | 0.98 | -1.6 | · | · | 106 | -5
CCn1cc(S(=O)(=O)c2ccc(C)cc2)[nH]c1=O | i | 1 | · | · | · | 102 | -4
Oc1c(/C=C/C=C/C=Nc2ccccc2)sc(=S)n1Cc1ccccc1 | i | 1.2 | · | · | · | 91 | ·
O=C(NCC1CCCCC1)c1cccc(S(=O)(=O)NCc2cccnc2)c1 | i | 1.1 | · | -44 | 108 | 107 | 4
Cc1ccc(N/C(N)=N/c2nc(C)cc(C)n2)cc1 | i | 0.84 | -0.3 | 31 | 147 | 106 | -4
Cn1c(=O)c2c(ncn2CC(=O)N2CCN(c3ccccc3)CC2)n(C)c1=O | i | 0.86 | -1.4 | · | · | 75 | -6

Next section; the last six above are carried over.
SMILES | HSV augment | HSV augment primary fold | GALR2 ag | INS promoter inh | INS promoter inh cell count | RGS16-Gao | PKD1 kinase inh
COCCCNC(=O)c1ccc2c(c1)ncn2-c1ccccc1OC | i | 0.98 | -1.6 | · | · | 106 | -5
CCn1cc(S(=O)(=O)c2ccc(C)cc2)[nH]c1=O | i | 1 | · | · | · | 102 | -4
Oc1c(/C=C/C=C/C=Nc2ccccc2)sc(=S)n1Cc1ccccc1 | i | 1.2 | · | · | · | 91 | ·
O=C(NCC1CCCCC1)c1cccc(S(=O)(=O)NCc2cccnc2)c1 | i | 1.1 | · | -44 | 108 | 107 | 4
Cc1ccc(N/C(N)=N/c2nc(C)cc(C)n2)cc1 | i | 0.84 | -0.3 | 31 | 147 | 106 | -4
Cn1c(=O)c2c(ncn2CC(=O)N2CCN(c3ccccc3)CC2)n(C)c1=O | i | 0.86 | -1.4 | · | · | 75 | -6
COc1ccc(-n2nnnc2/C=C\Nc2ccccc2C(=O)c2ccccc2)cc1 | i | 0.57 | -2.9 | -70 | 64 | 99 | -4
CSCCC(C(=O)N1CC2(C)CC1CC(C)(C)C2)N1C(=O)c2ccccc2C1=O (centres undefined) | i | 0.82 | -1.4 | 50 | 54 | 108 | -4
CCN1CCN(c2oc(-c3ccco3)nc2C#N)CC1 | i | 0.94 | · | · | · | 100 | ·
COc1cccc(CNC(=O)CCC2CCCN(c3cc(C)nc(N(C)C)n3)C2)c1 (centres undefined) | i | 1.1 | · | · | · | 137 | 6
CCOC(=O)CSC1=C(C#N)C(c2ccc(C)o2)CC(=O)N1 (centres undefined) | i | 0.56 | -1.4 | i | 8 | 112 | -2
COc1ccc(CCN2C(=O)CS/C2=N/NC(=O)c2ccccc2F)cc1OC | i | 0.95 | -1.3 | 12 | 96 | 103 | -9
CC(Sc1nc2cc([N+](=O)[O-])ccc2n1-c1ccc(F)cc1)C(=O)NCc1ccc2c(c1)OCO2 (centres undefined) | i | 0.96 | -1.3 | -60 | 112 | 97 | -15
Nc1cc(-c2ccc(Cl)cc2)nn1S(=O)(=O)c1cccc2nsnc12 | i | 0.92 | -1.1 | · | · | 100 | -10
CC(C)CC(=O)NC(=S)Nc1ccccc1F | i | 0.99 | -0.5 | 31 | 128 | 100 | 2
O=C(CC(=O)N/N=C/c1c(F)cccc1Cl)NCc1ccccc1 | i | 0.89 | · | · | · | 110 | 0
CCOC(=O)/C(N=Nc1ccc(Cl)cc1)=C(/O)c1ccc([N+](=O)[O-])cc1 | · | · | -2.0 | 27 | 97 | 100 | 1
O=C(Nc1ccc(Cl)cc1)c1cc2nc(C3CC3)cc(C(F)(F)F)n2n1 | i | 0.77 | -0.8 | 40 | 121 | 103 | -2
CCOc1ccc(/C(O)=C2\C(=O)C(=O)N(CCN(C)C)C2c2cccc(OC)c2OC)cc1Cl (centres undefined) | i | 0.65 | -1.3 | -68 | 129 | 102 | -2
CCOC(=O)C(O)(CC(=O)Nc1cc(F)ccc1C)C(F)(F)F (centres undefined) | i | 0.81 | -2.5 | 38 | 129 | 99 | 4
Cc1cc(C)cc(NC(=O)CCC(=O)Nc2cc(C)on2)c1 | i | 0.81 | -0.7 | 71 | 105 | 102 | -1
O=C1CCCC/C1=N\Nc1ccc(C2CCCCC2)cc1 | i | 0.92 | · | · | · | 100 | ·
Cc1ccc(OCC(=O)NNC(=O)CSc2nnc(-c3ccc(C)cc3)n2C)cc1 | i | 1 | -0.3 | -73 | 105 | 97 | -22
O=C(/C=C/c1cccs1)N1CCN(Cc2ccc3c(c2)OCO3)CC1 | · | · | -0.1 | -50 | 47 | 116 | -3
CCO[C@@H]1OC(C(=O)NCc2nc3ccccc3[nH]2)=C[C@H](c2ccc(C(F)(F)F)cc2)[C@H]1CCCO | i | 0.85 | · | · | · | 107 | -2
CN(Cc1cn(-c2ccccc2)nc1-c1ccc2c(c1)OCO2)Cc1nccn1C | i | 0.83 | · | · | · | 106 | -5
CCN(C(=O)CSc1ncccc1C(=O)Oc1cccc([N+](=O)[O-])c1)c1cccc(C)c1 | i | 0.92 | 0.8 | -10 | 135 | 98 | -6
C[C@H]1COc2c(C3(N)CC3)c(F)cc3c(=O)c(C(=O)O)cn1c23 | i | 0.9 | · | · | · | 99 | ·
CC1(C)C/C(=N\NC(=S)Nc2ccccc2F)c2cc(O)ccc2O1 | i | 0.7 | · | · | · | 98 | 1
O=C(Cn1cnc2c(cnn2-c2ccc(F)cc2)c1=O)N1CCN(c2ccccc2)CC1 | i | 0.9 | -1.0 | · | · | 100 | -5
Cc1ccc(C(=O)COC(=O)CNC(=O)c2cccs2)cc1 | i | 0.93 | -0.3 | 46 | 123 | 101 | 1

Single entries from the list:
For RGS16-Gao, CCN1CCN(c2oc(-c3ccco3)nc2C#N)CC1 is listed with 100
For GALR2 ag, Nc1cc(-c2ccc(Cl)cc2)nn1S(=O)(=O)c1cccc2nsnc12 is listed with -1.1

New compounds follow
SMILES | HSV augment | HSV augment primary fold | GALR2 ag | INS promoter inh | INS promoter inh cell count | RGS16-Gao | PKD1 kinase inh
N#CC(C(=O)C12CC3CC(CC(C3)C1)C2)c1nc2ccccc2[nH]1 (centres undefined) | i | 0.76 | -0.4 | -29 | 97 | 95 | -17
CCCCCCCCCCn1c2c(c(=N)c3c1CCC3)CCC2 | i | 0.5 | -4.3 | -86 | 33 | 117 | 12
CS(=O)(=O)N1CCC(C(=O)NCc2ccc(Cl)cc2)CC1 | i | 0.99 | · | · | · | 97 | ·
CCCS(=O)(=O)N1CCC(C(=O)NCc2ccc3c(c2)OCO3)CC1 | · | · | · | 0 | 84 | 105 | -10
COc1nc(Nc2ccc([N+](=O)[O-])cc2)nc(NC2CCCCC2)n1 | i | 0.93 | · | 36 | 121 | 103 | -6
CCC(C)NC(=S)Nc1ccc(F)cc1 (centres undefined) | i | 0.98 | · | · | · | 100 | ·
CCc1nc(SCC(=O)N2CCC(C)CC2)c2c(=O)n(C)c(=O)n(C)c2n1 | i | 0.87 | -0.6 | · | · | 101 | 7
CN1C(=S)SC(C)(NO)C1(C)C (centres undefined) | i | 1 | 1.3 | -57 | 56 | 104 | -9
COc1cc2[nH]c(=O)n(Cc3ccccc3Cl)c(=O)c2cc1OC | i | 1 | -0.5 | 50 | 144 | 89 | 2
COc1ccc(S(=O)(=O)N2CCCN(CCC(=O)Nc3cccc(C(F)(F)F)c3)CC2)cc1 | · | · | -3.4 | -61 | 92 | 101 | 2
Clc1ccc(-c2csc(N/N=C/c3ccc4c(c3)OCO4)n2)cc1 | i | 1 | -0.1 | · | · | 104 | 1
Cc1ccc(C(=O)N2C(=S)C(c3ccc(F)cc3)=NC23CCN(C)CC3)cc1 | i | 0.93 | -0.6 | · | · | 100 | -11
O=S(=O)(Nc1ccncc1)c1ccc(Cl)cc1 | i | 0.82 | -2.3 | · | · | 104 | -5
COc1ccccc1NC(=S)NC(NC(=O)CC(C)C)C(Cl)(Cl)Cl (centres undefined) | i | 1 | · | · | · | 106 | 5
COP(=O)(OC)C(NC(=O)Nc1ccccc1)c1ccccc1 (centres undefined) | i | 0.94 | · | · | · | 108 | ·
COc1ccc(S(=O)(=O)N2CCCCC2)cc1NC(=O)c1ccc(=O)[nH]c1 | i | 0.98 | · | · | · | 101 | -2
CC1(C)NC(=O)N(CC(O)COc2ccccc2[N+](=O)[O-])C1=O (centres undefined) | i | 0.92 | · | 46 | 124 | 101 | -5
CSCCC(NC(=O)c1ccco1)C(=O)OCC(=O)Nc1sccc1C#N (centres undefined) | · | · | -0.7 | · | · | 101 | 2
Cc1nn(-c2ccccc2)c(C)c1/C=N/NC(=O)CSc1nnc(SCc2ccccc2Cl)s1 | i | 0.91 | 0.8 | -167 | 92 | 102 | 3
CCCCC[C@H](O)/C=C/[C@@H]1[C@@H](C/C=C\CCCC(=O)O)[C@H]2CO[C@@H]1C2 | i | 0.76 | 0.4 | 5 | 145 | 102 | -1
Cc1cc(C)n2nc(C(=O)N3CCOCC3)nc2n1 | i | 0.88 | -2.9 | -29 | 185 | 100 | 2
Cc1ccc(CNC(=O)C2CC(=O)N(C3CCCCCCC3)C2)cc1 (centres undefined) | i | 0.91 | -0.6 | -53 | 93 | 103 | 16
COCCn1c(C)cc(C(=O)CSc2ncnc3sc4c(c23)CCC4)c1C | i | 0.74 | -2.1 | -253 | 71 | 97 | -8
Cc1sc2ncnc(SCC(=O)Nc3nc(-c4ccc(F)c(F)c4)cs3)c2c1C | i | 0.95 | · | · | · | 99 | 2
COc1ccc(-c2nnc(SCC(=O)c3ccc[nH]3)n2-c2ccccc2)cc1 | i | 0.96 | -0.4 | 0 | 177 | 103 | -2
CC(C)NC(=O)c1onc(CSc2ccc(F)c(F)c2)c1C(=O)O | i | 0.92 | -2.6 | 62 | 77 | 53 | -4
Nc1nnnn1/N=C/C=C/c1ccccc1 | i | 1.2 | -1.5 | -47 | 114 | 103 | -5

Screening results: PubChem, several laboratories
